# TAR Tat displ – HIV-1 TAR-Tat binding disruption | HIV-1 TAR RNA, Tat peptide displacement FRET; hits give high values | z-score (no concentration beside the values) | hit rate 0.6% among 100,000 | AID 1259389;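 further: score is relative to mean and SD of negative controls; some compounds called inactive have numbers as strong as hits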
# CDC25B CDK2 inh – human CDC25B-CDK2/CyclinA binding inhibition. P30305+P24941. HTRF CDC25B-CDK2/CyclinA binding, anti-His/anti-Flag; hits give high values. z-score (no concentration beside the values). hit rate 0.72% among 94,000. AID 1259370;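 further: score is relative to mean and SD of negative controls; strong numbers were not always called active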
# * = called active by the depositor; / = not tested or not shown.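 How the source made its calls: active means z-score from 3 up in half or more of its runs; inactive means the rest.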
SMILES,TAR Tat displ,CDC25B CDK2 inh
N#Cc1c(NC(=O)CSc2ccc(Cl)cc2)sc2c1CCC2,-1.52,-1.08
CCn1c(=O)c2c(nc3n2CC(C)CN3c2ccc(Br)cc2)n(C)c1=O (configuration not stated),-0.99,-1.33
CCc1ccc(OCc2nnc(N)s2)cc1,-0.74,-0.75
COc1ccc(C2CC(=O)Nc3cc4c(cc32)OCCO4)c(OC)c1OC (configuration not stated),/,-2.2
Cc1nnc(N2C(=O)C(O)=C(C(=O)c3ccco3)C2c2ccc(Cl)cc2)s1 (configuration not stated),-5.12,0.24
COc1ccc(-c2nc(SCc3cc(=O)c4ccccc4[nH]3)n[nH]2)cc1,1.18,/
Cc1ccccc1-c1noc(-c2ccccc2C)n1,1.61,1.45
NC(=O)NC(=O)c1c(NC(=O)c2ccc(-c3ccccc3)cc2)sc2c1CCC2,-1.09,/
O=C(CC1CCCCC1)Nc1nnc(SCc2nc3ccccc3[nH]c2=O)s1,-0.91,/
Fc1ccc(CN2CCc3nc(N4CCOCC4)ncc3C2)cc1,1.39,/
CCN1CCN(c2nc(N3CCOCC3)nc3c2cnn3C)CC1,1.51,/
Cc1ccc(C(C)C)cc1C(=O)CC1(O)C(=O)Nc2ccc(Cl)cc21 (configuration not stated),2.74,-1
Cc1cc(C)n(-c2nc3c(c(=O)n2CC(=O)N2CCCC2)CCC3)n1,1.02,/
CCCCOC(=O)C1=C(C)NC2=C(C(=O)CC(C)(C)C2)C1c1ccc(OCC)c(OC)c1 (configuration not stated),-0.18,-2.52
CCOC(=O)CNC(=O)C1(C)Cn2c(ccc2-c2ccco2)C(=O)N1CCC1=CCCCC1 (configuration not stated),-1.01,/
C=C(C)CSc1nc(C)c(CC(C)C)c(=O)[nH]1,-0.52,-0.86
COc1ccc(NC(=O)N2c3ccc(OC)cc3C(C)=CC2(C)C)cc1,0.73,-0.68
COc1ccc(C2CC(=O)C3=C(C2)Nc2ccccc2NC3c2ccc(O)cc2)cc1OC (configuration not stated),1.14,-4.69
COc1ccc(-c2onc(C)c2C)cc1S(=O)(=O)NCCCOC(C)C,0.5,/
O=C(Cn1ncc2c([nH]c3ccccc32)c1=O)Nc1cccc(Cl)c1,0.29,/

# Taken from above.
# For CDC25B CDK2 inh, CCCCOC(=O)C1=C(C)NC2=C(C(=O)CC(C)(C)C2)C1c1ccc(OCC)c(OC)c1 (configuration not stated) has -2.52
# For TAR Tat displ, COc1ccc(-c2onc(C)c2C)cc1S(=O)(=O)NCCCOC(C)C has 0.5

# (next part)
SMILES,TAR Tat displ,CDC25B CDK2 inh
NC(=S)N/N=C/c1ccc([N+](=O)[O-])s1,/,1.32
CCc1ccc(-c2nc3c(C#N)c[nH]n3c2NC2CCCCC2)cc1,0.86,-0.91
O=C(c1cccs1)N1CCN(Cc2cc(=O)n3[nH]c(-c4ccccc4)nc3n2)CC1,1.37,/
CCOC(=O)C(C(=O)OCC)c1ccc2cccc(O)c2n1,2.33,-2.13
CC(C)CCNC(=O)c1cc(C2CC2)[nH]n1,-0.53,/
CCCC(=O)N1c2nc(-c3cccnc3)nn2C2(CCCCC2)[C@@H]2CCCC[C@@H]21,1.42,-1.26
O=S(=O)(O)c1cccs1,/,-1.71
Cc1nn(S(=O)(=O)c2ccc3ccccc3c2)c(C)c1S(=O)(=O)N1CCCCC1,1.7,/
CC(C)NC(=O)c1sc(=S)n2c1[nH]c(=O)c1ccc(C(=O)NC3CCCC(C)C3C)cc12 (configuration not stated),-1.42,/
COc1ccc(-c2onc(C)c2C)cc1S(=O)(=O)NCC1CCN(Cc2ccc(C)cc2)C1 (configuration not stated),1.5,/

# Single records, from the list above.
# COc1ccc(-c2onc(C)c2C)cc1S(=O)(=O)NCC1CCN(Cc2ccc(C)cc2)C1 (configuration not stated) in the list: TAR Tat displ: 1.5; CDC25B CDK2 inh: /
# O=C(c1cccs1)N1CCN(Cc2cc(=O)n3[nH]c(-c4ccccc4)nc3n2)CC1 in the list: TAR Tat displ: 1.37; CDC25B CDK2 inh: /
# O=S(=O)(O)c1cccs1 in the list: TAR Tat displ: /; CDC25B CDK2 inh: -1.71

# Other structures:
SMILES,TAR Tat displ,CDC25B CDK2 inh
CCCCN1C(=O)c2ccccc2C1C(=O)NC1CCCC1 (configuration not stated),/,-1.23
CCOc1ccccc1NCc1nc2nc(C)cc(C)n2n1,-2.88,-1.62
COc1ccc(C2CC(=O)C3=C(C2)Nc2ccccc2NC3c2ccccc2)cc1 (configuration not stated),-6.38,-1.08
CC(C)NC(=O)c1cc2c(s1)-c1ccccc1OC2,/,-0.81
Cc1ccc(C2CC(=O)NC(SCc3ccccc3)=C2C#N)o1 (configuration not stated),-0.17,-0.84
N#CC(C(=O)c1cccc(C(F)(F)F)c1)=C1SCCCCS1,/,-0.92
COCCOc1ccc(NC(=S)N2CCOCC2)cc1,/,-2.06
Cc1cc2nc(COC(=O)CCc3ccccc3)cc(=O)n2o1,1.48,/
CC(C)c1cc(C2CCCN2Cc2cc(Br)ccc2O)no1 (configuration not stated),1.28,/
COC(=O)C1=C(C)NC2=C(C(=O)CC(c3ccc(Cl)cc3)C2)C1c1ccc(OC)cc1OC (configuration not stated),0.43,-1.51
COc1cc2nc(SCc3cc(=O)n4cc(Cl)ccc4n3)n3nc(C)nc3c2cc1OC,/,-2.47
Cc1nc(N2CCCC2)c2c(C(=O)N3CCN(c4cccc(Cl)c4)CC3)c(C)oc2n1,0.49,/
Cc1ccc2nc(N3CCOCC3)c3nnnn3c2c1,1.51,/
CCOc1cc(CO)ccc1OCc1ccc(C(=O)O)cc1,-0.72,-0.07
Cn1ccc2cc(S(=O)(=O)N3CCC(C(=O)NC4CCCC4)CC3)ccc21,0.41,/
CCCOC(=O)CSc1nnc2ccc3ccccc3n12,0.18,-0.65
Cc1nn(C)c(NC(=O)c2ccccc2)c1Br,/,-0.2
NC(=O)Cn1c(=O)nc(-c2ccccc2)c2ccccc21,-0.27,/
O=C1CC(c2cccnc2)c2c(ccc3ccccc23)N1 (configuration not stated),-0.27,-0.6
O=c1ccc(-c2ccncc2)n[nH]1,/,-1.46
Cc1cc(C(=O)N2CCN(C(c3ccccc3)c3ccccc3)CC2)nn1C,/,-1.55
COC(=O)c1ccc(C2N=C(c3ccc4c(c3)OCO4)CC(c3ccccc3O)N2)cc1 (configuration not stated),/,-1.28
CN(C)S(=O)(=O)N1CCN(c2nc3ccccc3n3cccc23)CC1,0.18,-1.12
Cc1cc(C)n(-c2ncnc3sc(C)c(-c4ccccc4)c23)n1,1.74,0.16
CC1Cn2cc(C(=O)NCCC3=CCCCC3)c(=O)c3c(Cl)ccc(c32)O1 (configuration not stated),1.25,/
O=C1COc2cc(S(=O)(=O)CCC(=O)N3CCc4ccccc4C3)c(Cl)cc2N1,0.91,/
CC(C)c1c(O)c(-c2cc3c(c(C(C)C)c2O)CCC2C(C)(C)CCC[C@]32C)cc2c1CCC1C(C)(C)CCC[C@]21C (some centres not stated),2.17,/
Cn1c(=O)c2c(nc(NCc3cccnc3)n2Cc2ccccc2F)n(C)c1=O,2.78,-0.84
CNC(=O)C1=Cc2sc(C)c(C)c2CS1,0.27,/
COC(=O)c1cc(Oc2ncnc3sc(C)c(C)c23)cc(C(=O)OC)c1,/,-1.71
CCOC(=O)c1c(NC(=O)c2cnn3cccnc23)sc2c1CCCC2,-5.25,0.18
CC1CCN(S(=O)(=O)c2ccc(-c3noc(-c4cc5cc(Cl)ccc5[nH]4)n3)cc2)CC1,1.98,/
COc1ccc(Oc2nc(C)nc3sc4c(c23)CCCC4)cc1,1.98,/
CCOC(=O)c1cc(-c2ccc(S(=O)(=O)N3CCOCC3)s2)on1,-0.15,/
Cc1ccc(S(=O)(=O)NNC(=O)CCc2nc(-c3ccc(Cl)cc3)no2)cc1,/,-0.53
Cc1c(NS(=O)(=O)c2ccccc2)c(-n2cnnc2)nn1C,0.14,-1.77
COc1ccc(Nc2nn3c(=O)c4cc5c(cc4nc3s2)OCO5)c(OC)c1,2.28,10.1
CCOC(=O)C(NCCc1ccc(OC)c(OC)c1)(NC(=O)c1ccco1)C(F)(F)F (configuration not stated),/,-1.95
CC12c3ccccc3C(c3ccccc31)C1C(=O)N(c3ccc(C(=O)O)cc3)C(=O)C12 (configuration not stated),0.02,-0.72
Cc1nc2sc3ccccc3n2c(=O)c1S(=O)(=O)Nc1ccc(Cl)cc1,1.84,/
COc1ccc(CNc2nc(-c3ccccc3)no2)c(OC)c1,-0.62,/
Cc1c(C(=O)NCC(c2ccco2)N(C)C)oc2ccccc12 (configuration not stated),2.29,-0.99
CC1=C(C)CC(C(=O)NCc2ccccn2)C(C(=O)O)C1 (configuration not stated),/,-2.59
O=C(O)C1CCN(c2ccc(=O)[nH]n2)CC1,2.19,-2.51
COc1ccc(N2CCCCn3c2nc2c3c(=O)n(C)c(=O)n2C)cc1,-0.89,-1.22
COc1ccccc1NC1c2ccccc2C(=O)N1c1ccccn1 (configuration not stated),0.65,-0.17
Cc1cc(C)cc(NS(=O)(=O)c2ccc3c(c2)NC(=O)CO3)c1,0.96,/
COc1cccc(C2c3c(oc4ccccc4c3=O)C(=O)N2c2nnc(C)s2)c1 (configuration not stated),0.94,-0.69
CCc1ccc(Nc2nc3ccccc3n3c(C)nnc23)cc1,0.81,-1.11
S=c1[nH]nc2c(-c3ccccc3)c(-c3ccccc3)c(-c3ccccc3)nn12,/,-2.74

# New compounds follow
SMILES,TAR Tat displ,CDC25B CDK2 inh
NC(=S)COc1ccc(Cl)cc1,/,-0.55
CCc1cc2c(=O)c(-c3ccc4ccccc4n3)coc2cc1OC,2.68,-1.49
COc1ccc(CNC(=O)C(C)N2C(=O)COc3ccc(C)cc32)c(OC)c1 (configuration not stated),/,-1.07
CC(=O)N1c2ccc(S(=O)(=O)N3CCCC3)cc2CC1C(=O)N1CCN(c2ccccn2)CC1 (configuration not stated),2.88,/
CC(C)(C)c1cc(C2=NNC(O)(C(F)(F)F)C2)c2c(c1)C(C)(C)CC2 (configuration not stated),/,-1.37
O=C1CC(c2ccc(Cl)cc2)n2ncnc2N1 (configuration not stated),/,-1.24
CCCN1CCN(c2ncc3c(n2)CCN(Cc2ccc(N(C)C)cc2)C3)CC1,-1.21,/
O=C1[C@H]2CCCC[C@H]2C(=O)N1CCCCN1CCN(c2nsc3ccccc23)CC1,1.83,/
Cc1oc2ncnc(N3CCOCC3)c2c1C(=O)NCCN(Cc1ccco1)C1CCCC1,1.1,/
Cc1occc1-c1nnc2sc(/C=C/c3ccc(Cl)cc3)nn12,0.47,-0.6
Cc1ccc(C2CC(C(F)(F)F)n3nc(C(=O)NCC4CCCO4)cc3N2)cc1 (configuration not stated),2.51,-1.45
Cc1ccc(C)c(CNS(=O)(=O)c2ccc3c(c2)NC(=O)C(C)CS3)c1 (configuration not stated),2.65,/
CCc1nn(CC(=O)N2CC(C)CC(C)C2)c(=O)c2cccn12 (configuration not stated),1.3,-1.9
Cc1ccc2[nH]c3c(=O)n(C(C)c4ccccc4)cnc3c2c1 (configuration not stated),2.54,-0.84
COCCCN1C(=O)C(=O)/C(=C(/O)c2ccc(C)cc2)C1c1ccc(F)cc1 (configuration not stated),0.17,-2.36
O=C(c1cc(-c2ccc(Br)cc2)n[nH]1)N1CCN(C(=O)c2cccs2)CC1,0.32,/
Cc1sc(NC(=O)CN2CCc3ccccc32)c(C#N)c1C,/,-1.23
O=C(O)c1nccnc1C(=O)Nc1ccc2c(c1)OCCO2,-0.17,-1.58
Cc1cc(C)n2ncc(-c3ccc(Cl)cc3)c2n1,-0.55,-0.07
CC1CC(=O)N(CC(=O)NCc2ccco2)c2ccccc2S1 (configuration not stated),/,-1.86

# Gathered by group: those above with a cyano group (five)
SMILES,TAR Tat displ,CDC25B CDK2 inh
N#Cc1c(NC(=O)CSc2ccc(Cl)cc2)sc2c1CCC2,-1.52,-1.08
CCc1ccc(-c2nc3c(C#N)c[nH]n3c2NC2CCCCC2)cc1,0.86,-0.91
Cc1ccc(C2CC(=O)NC(SCc3ccccc3)=C2C#N)o1 (configuration not stated),-0.17,-0.84
N#CC(C(=O)c1cccc(C(F)(F)F)c1)=C1SCCCCS1,/,-0.92
Cc1sc(NC(=O)CN2CCc3ccccc32)c(C#N)c1C,/,-1.23

# (continued)
SMILES,TAR Tat displ,CDC25B CDK2 inh
COc1ccccc1NC1=NS(=O)(=O)C(c2cccc(Br)c2)=C1C,0.83,-0.46
CCC1CCCCN1C(=O)Cn1c(C(=O)OC)cc2sc(C)cc21 (configuration not stated),0.62,-0.4
CCC(CC)C(=O)Nc1ccc(OCc2cc(=O)n3c(C)csc3n2)cc1,1.3,-2.07
CCc1ccc(C(=O)C2OC(=O)C(C)(C)C(=O)C2(C)C)cc1 (configuration not stated),/,-1.57
CC1(C)Cc2c(sc3ncn4nc(-c5ccncc5)nc4c23)CO1,0.3,1.08
CCCN1C(=O)C2(/C(=C(/O)c3ccc(OCC)cc3)C(=O)C(=O)N2CC2CCCO2)c2ccccc21 (configuration not stated),-0.04,-0.99
Cc1cc(-c2ccc(C)c(S(=O)(=O)N3CC=C(c4ccccc4)CC3)c2)on1,0.11,/
CC(C)NC(=O)c1cc2ccccc2c(=O)s1,-0.31,-1.57
CCCCCCSc1nnc2[nH]c(=O)cc(N)n12,1.54,1.66
COc1ccc(C2SCCN2S(=O)(=O)c2ccc(Br)cc2)cc1 (configuration not stated),-0.48,-2.96
CC(=O)Nc1ccc(S(=O)(=O)Nc2cccc(C(=O)Nc3ccccc3C(=O)O)c2)cc1,/,-2.6
COc1ccc(-c2cc(-c3ccc(Cl)cc3)nc(N)n2)cc1,-2.06,-0.32
